Compound activity from PubChem BioAssay.
Kir21 inh – inhibitors of mouse Kir2.1 inward-rectifier potassium channel | B-score at 10 µM | 0.85% of 310,000 active | AID 1672 | HEK293-Kir2.1, FluxOR thallium flux fluorescence; active compounds read low;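 active = fluorescence ratio B-score at or below minus 3 SD of library scores, with starting-brightness B-score within 2 SD, cut at about -4.2 in these data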;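 also: channel flux triggered by added potassium and thallium sulfate stimulus; B-score of peak minus minimum fluorescence over baseline after thallium stimulus; more negative B-score means stronger Kir2.1 block with less thallium influx; some compounds called inactive have numbers as strong as hits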
Target sequence (P35561 whole entry, looked up): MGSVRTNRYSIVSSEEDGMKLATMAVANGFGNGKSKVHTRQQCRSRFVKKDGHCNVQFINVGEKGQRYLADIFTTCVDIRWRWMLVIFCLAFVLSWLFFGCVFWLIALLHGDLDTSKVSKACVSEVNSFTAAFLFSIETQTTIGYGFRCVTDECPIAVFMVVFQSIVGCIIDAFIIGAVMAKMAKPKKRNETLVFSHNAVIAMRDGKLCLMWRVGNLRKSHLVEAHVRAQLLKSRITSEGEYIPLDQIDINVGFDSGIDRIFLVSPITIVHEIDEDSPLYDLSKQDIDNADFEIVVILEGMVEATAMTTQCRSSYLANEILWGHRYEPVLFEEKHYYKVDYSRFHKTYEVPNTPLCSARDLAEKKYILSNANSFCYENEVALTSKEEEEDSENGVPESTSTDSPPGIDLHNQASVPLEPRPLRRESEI
STK33 kinase inh – blocks human STK33 kinase activity; Q9BYT3; purified STK33, MBP phosphorylation, ADP-Glo luminescence; inhibition, % at 10 µM; 0.073% of 320,000 active; AID 2661;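 active = inhibition at or above 25%, using the most active replicate where run in duplicate; inactive = inhibition below 25%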
Target sequence (Q9BYT3 whole entry, looked up): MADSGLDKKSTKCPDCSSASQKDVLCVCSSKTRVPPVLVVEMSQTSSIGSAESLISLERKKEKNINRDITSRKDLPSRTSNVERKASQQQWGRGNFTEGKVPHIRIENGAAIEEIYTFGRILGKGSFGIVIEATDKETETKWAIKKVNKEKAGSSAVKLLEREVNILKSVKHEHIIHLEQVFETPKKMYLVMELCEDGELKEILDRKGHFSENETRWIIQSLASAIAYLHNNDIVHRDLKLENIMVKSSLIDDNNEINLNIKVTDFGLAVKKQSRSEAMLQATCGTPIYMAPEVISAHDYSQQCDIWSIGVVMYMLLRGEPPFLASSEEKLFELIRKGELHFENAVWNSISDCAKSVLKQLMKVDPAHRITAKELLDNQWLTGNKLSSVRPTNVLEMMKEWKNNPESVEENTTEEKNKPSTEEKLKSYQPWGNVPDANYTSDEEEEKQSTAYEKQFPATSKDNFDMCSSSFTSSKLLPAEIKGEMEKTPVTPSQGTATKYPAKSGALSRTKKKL
Active calls of the source: *; · = not tested or not shown.

Kir21 inh | STK33 kinase inh | Molecule
-0.72 | 2.0 | CCOC(=O)c1c(NC(=O)CSc2ncnc3ccccc23)sc(C)c1C
-0.97 | -0.5 | Cc1nc(N)sc1-c1csc(NCc2ccccc2)n1
-0.68 | -1.3 | CCC(=O)Nc1ccc(N/C(N)=N/c2nc(C)cc(C)n2)cc1
0.02 | -2.0 | Cc1ccc2nc(SCC(=O)NC3CCCC3)nc(=O)n2c1
1.4 | -2.1 | COC(=O)COc1cccc2c(=O)n(CC(=O)N3CCCCC3)ccc12
0 | 0.0 | NC(=O)CC1Nc2cccc3cccc(c23)NC1=O (configuration not stated)
-0.44 | -0.9 | CC(C)NS(=O)(=O)c1ccc(OCC(=O)Nc2ccc(F)cc2)cc1
-0.5 | -0.1 | O=C(NCCCN1CCOCC1)c1cc(-c2ccccc2)nc2ccccc12
1.4 | -1.5 | CC(NC(=O)c1ccc(NC(=O)c2ccco2)cc1)c1ccccc1 (configuration not stated)
0.36 | 0.1 | O=C(CC1CC2CCC1C2)NC1CCCCCCC1 (configuration not stated)
1.1 | 1.0 | O=C(C(=O)N1CCCC1CO)N1CCCC1CO (configuration not stated)
0.18 | 0.3 | Cc1cc(NC(=O)c2ccccc2Cl)ccc1NC(=O)c1ccccc1Cl
1.6 | -0.4 | COC(=O)c1cc(C(=O)OCC(=O)N(C)c2ccccc2)cc([N+](=O)[O-])c1
-0.02 | 0.9 | Cc1ccc(C(=O)NCC#N)cc1
-0.25 | 0.2 | O=C(c1c(Cl)nc2sccn12)N1CCN(c2cccc(Cl)c2)CC1
-0.01 | 1.2 | Cc1nc(-n2ncc(C#N)c2N)c2c3c(sc2n1)CCC3
-0.56 | -0.6 | CCCN(CCC)CCCNC(=O)C(NS(=O)(=O)c1ccc2c(c1)CCC(=O)N2)c1ccccc1 (configuration not stated)
2 | 0.1 | COc1ccccc1NC(=O)CSc1nnc(CC(=O)Nc2cccc(C(F)(F)F)c2)n1C
-0.45 | 0.5 | CC(C)c1nnc(NC(=O)CCC(=O)NC2CCCCC2)s1
-1 | -0.5 | Cc1cc(C)cc(OCC(O)CN2CCN(C(=O)c3ccco3)CC2)c1 (configuration not stated)
-0.02 | 0.2 | COc1cc2c(cc1OC)CN(C(=O)Cc1ccc(OC)c(S(=O)(=O)N3CCOCC3)c1)CC2
-1.1 | -0.3 | CS(=O)(=O)N(CC(=O)Nc1cc(Cl)ccc1Cl)c1ccccc1Cl
-1.1 | -1.2 | CN1CCN(NC(=O)/C=C/c2ccc(C(C)(C)C)cc2)CC1
-1.8 | -0.5 | O=C(NCC1CCCO1)c1onc(CSc2ccccc2)c1C(=O)O (configuration not stated)
2.1 | 1.6 | O=C(CCn1cccc1)Nc1cccc(F)c1

Single values from above:
Reading for `CCC(=O)Nc1ccc(N/C(N)=N/c2nc(C)cc(C)n2)cc1` in Kir21 inh: -0.68
Reading for `COc1cc2c(cc1OC)CN(C(=O)Cc1ccc(OC)c(S(=O)(=O)N3CCOCC3)c1)CC2` in Kir21 inh: -0.02
Reading for `O=C(c1c(Cl)nc2sccn12)N1CCN(c2cccc(Cl)c2)CC1` in Kir21 inh: -0.25
Reading for `O=C(CCn1cccc1)Nc1cccc(F)c1` in Kir21 inh: 2.1
Reading for `Cc1ccc(C(=O)NCC#N)cc1` in Kir21 inh: -0.02

In the list so far, two have two or more sulfur atoms:
Kir21 inh | STK33 kinase inh | Molecule
-0.72 | 2.0 | CCOC(=O)c1c(NC(=O)CSc2ncnc3ccccc23)sc(C)c1C
-0.97 | -0.5 | Cc1nc(N)sc1-c1csc(NCc2ccccc2)n1

Further structures
Kir21 inh | STK33 kinase inh | Molecule
-1.3 | -0.1 | O=C(c1ccccn1)N(Cc1cc2ccccc2[nH]c1=O)C1CCCCC1
0.38 | -1.3 | CCC(C)c1ccc(NC(=O)C2CCN(c3ccc(C(F)(F)F)cn3)CC2)cc1 (configuration not stated)
0.77 | -0.4 | Cc1cc(=O)oc2c(C)c(OC(C)C(=O)NCC3CCC(C(=O)O)CC3)ccc12 (configuration not stated)
0.01 | -1.2 | CC1CC(C)CN(C(=O)C2CCC(CNc3c(N4CCCCC4)c(=O)c3=O)CC2)C1 (configuration not stated)
0.7 | -2.0 | CCOCCCNc1ccc(N2C(=O)CCCC2=O)cc1[N+](=O)[O-]
-0.75 | -0.8 | O=C(O)c1ccccc1C(=O)NC1=NN(c2ccccc2)CC1
-1.7 | -1.0 | Cc1ccccc1NC(=S)NCCSc1ccc(Cl)cc1
-1.2 | -1.6 | Cc1ccc(NC(=O)C(Cc2ccccc2)N2C(=O)C3C4CCC(C4)C3C2=O)cc1Cl (configuration not stated)
-1.9 | -0.8 | CSCC[C@H](NC(=O)Nc1ccc(Oc2ccccc2)cc1)C(=O)O
-0.27 | -1.0 | COc1cccc(C2/C(=C(/O)c3cnn(-c4ccccc4)c3C)C(=O)C(=O)N2CCN(C)C)c1OC (configuration not stated)
0.52 | -1.5 | CCCSc1nc2sc3c(c2c(=O)n1CC)CC(C)(C)OC3
1.4 | -0.7 | COC(=O)COc1ccc(S(=O)(=O)N2CCN(c3ccc(F)cc3)CC2)cc1
-0.07 | 0.7 | CC(=O)N1CCc2cc(C(=O)CN3CCC(C)CC3)ccc21
0.34 | -0.4 | CCN1CCN(CCCOc2ccccc2-c2ccccc2)CC1
0.03 | -0.9 | COc1cccc(CC(NC(C)=O)C(=O)NC2CCN(c3nnnn3-c3ccccc3)CC2)c1OC (configuration not stated)
-2 | 2.4 | CC(C)C(=O)Nc1ccc(C(=O)Nc2ccc(S(=O)(=O)N3CCOCC3)cc2)cc1
0.71 | -2.8 | COc1cc(/C=N/NC(=S)NCc2ccccc2)ccc1OCC#N
-0.75 | -0.3 | CN(C)CCOC(=O)C12CC3CC(CC(C3)C1)C2
1 | -0.9 | O=C1/C(=C\c2cccs2)N=C(c2cccs2)N1Nc1ccccc1
-0.69 | 0.2 | CC(=O)OCC(=O)Nc1ccc(Cl)cc1Cl
1.2 | 0.9 | Cc1sc(NC(=O)C2CCCCC2C(=O)O)c(C(N)=O)c1C (configuration not stated)
0.1 | -2.5 | CC1=C(C(=O)NC(C)CCc2ccccc2)C2(CCC(C)CC2)OC1=O (configuration not stated)
-0.1 | -1.4 | Cc1cc(NC(=O)CSc2nc(-c3ccco3)cc(C(F)(F)F)n2)no1
-2.2 | 0.1 | CCOC(=O)/C(C#N)=C\N(C)C
0.53 | -3.4 | Cc1cccc(C)c1OCC(=O)Nn1c(COc2ccccc2)nc2ccccc2c1=O
-1.3 | 2.2 | CCN1CCN(c2nc(-c3cccs3)nc3ccccc23)CC1
1.5 | 0.0 | O=C(Nc1cccc(C(F)(F)F)c1)n1cc(-c2ccccn2)c(N2CCOCC2)n1
-0.21 | 1.1 | CC(=O)c1c(C)[nH]c(C(=O)COC(=O)c2cccc(S(=O)(=O)N(C)c3ccccc3)c2)c1C
1.4 | -0.3 | CCC(=O)N/C(=N/c1nc(C)cc(C)n1)Nc1ccc(C)cc1
-0.59 | -0.6 | COc1ccc2c(c1)SC(C)CC2=O (configuration not stated)
-1.2 | 0.4 | O=C(Nc1nc(-c2ccccc2)cs1)c1ccc(=O)[nH]c1
2.1 | -0.7 | CC(Oc1ccc(Cl)cc1Cl)C(=O)NC1=NN(c2ccccc2)C(=O)C1 (configuration not stated)
-0.37 | -0.6 | O=C(Nc1nc(-c2ccccc2)cs1)c1cccnc1
0.34 | -1.2 | O=C1C(=O)N(CCN2CCOCC2)C(c2cccc(Cl)c2)/C1=C(\O)c1ccc2c(c1)OCCO2 (configuration not stated)
-0.18 | -0.3 | CCCCn1c(N)c(N(CC(C)C)C(=O)CSc2nnc(-c3ccc(Cl)cc3)o2)c(=O)[nH]c1=O
-2.4 | 0.5 | O=C(/C=C/c1cc([N+](=O)[O-])ccc1OC(F)F)NCc1ccc(F)cc1
0.19 | 0.1 | CCOc1ccccc1/C=N/Nc1ccccc1[N+](=O)[O-]
-0.84 | -1.8 | c1nc(NCC2(N3CCOCC3)CCCCC2)c2ccsc2n1
0.26 | -1.9 | CCn1c(SCC(=O)Nc2ccc3c(c2)OCCO3)nnc1C1CC1
0.27 | -1.2 | COCCNS(=O)(=O)c1ccc2c(c1)n(C)c(=O)n2C
-0.01 | -0.4 | CSc1ccc(CN2CCC(n3nccc3NC(=O)C3CCOC3)CC2)cc1 (configuration not stated)
-0.65 | 0.3 | O=C(Nc1nc2ccc(Cl)cc2s1)c1ccco1
0.5 | -2.0 | COc1cccc(CCNC(=O)CCc2nnc(-c3cc(C)oc3C)o2)c1
0.17 | 0.5 | O=c1c2c(nc3nc(CCc4ccccc4)[nH]n13)CCC2
1 | 0.7 | O=C(c1ccc(Cl)c([N+](=O)[O-])c1)N(Cc1ccccc1)C1CCS(=O)(=O)C1 (configuration not stated)
0.32 | 9.4 | O=C(NC1CCCCC1)c1cc(S(=O)(=O)N2CCOCC2)ccc1Cl
-1.7 | -0.7 | CCOC(=O)C(/C(C)=N/NC(=O)C1CC1c1ccccc1)C(C)C (configuration not stated)
1.2 | -0.9 | CCCCCn1c(SCC(=O)OCC)nc2cc(C(=O)NCc3ccco3)ccc2c1=O
1 | -0.2 | Cc1cccc(N2CCN(C3=NC(=O)C(=C4CCCCC4)S3)CC2)c1
1.9 | -0.9 | Cc1ccc(C(=O)Cn2cccn2)cc1

Further compounds
Kir21 inh | STK33 kinase inh | Molecule
0.93 | -0.5 | CCc1ccc(NC(=S)N2CCC(NC(=O)c3ccccc3OC)CC2)cc1
0.99 | -2.1 | Cc1c(C(O)CN2CCC(C(N)=O)CC2)c2ccccc2n1C (configuration not stated)
0.65 | -0.8 | COc1ccccc1CSc1ncc(-c2ccc([N+](=O)[O-])cc2)[nH]1
-0.08 | -1.1 | O=[N+]([O-])c1ccc(Oc2cnc3ccccc3n2)cc1
-2 | 0.3 | Cc1cc(C)cc(NC(=S)Nc2ccc(Cl)c(Cl)c2)c1
-0.84 | 0.1 | Cc1cccc(CN2CCC(C(=O)Nc3ccc(-n4nc(C)cc4C)cc3)CC2)n1
0.12 | -1.0 | O=C(NNC(=O)c1cccs1)c1cccnc1
0.04 | -0.5 | CSc1ccccc1C(=O)Nc1cccc(C)c1
0.11 | -1.0 | Cc1cc(/C=C\c2nc(O)c([N+](=O)[O-])c(=O)[nH]2)c(C)n1-c1ccccc1
-0.03 | 5.3 | COc1ccccc1OCCCCNCCO
-1.5 | -0.7 | CCCCN(C)C(=O)CCC(=O)Nc1ccc2nc(N3CCN(C)CC3)cc(C)c2c1
-0.03 | -1.5 | CC(=O)c1cccc(NS(=O)(=O)c2ccc3c(c2)N(C(C)=O)CCO3)c1
-0.28 | 1.3 | COc1ccc(Nc2nc(Cl)c(C=O)s2)cc1
0.17 | · | Cc1ccc(C(=O)Nc2cccc(C(=O)NCc3ccccc3)c2)cc1
1.1 | -0.5 | COCCOC(=O)c1[nH]c2c(c1C)C(=O)C(C(=O)OC)C(C)C2 (configuration not stated)
0.19 | -0.1 | COc1cc2c(cc1OC)C(C(=O)Nc1ccccc1N1CCN(C)CC1)C1c3ccccc3CCN1C2=O (configuration not stated)
0.34 | -1.1 | COc1ccc(NC(=O)C(=O)Nc2cccc3cccnc23)c(OC)c1
-1 | -2.0 | Cc1ccc(-n2c(SCC3CNC(=O)O3)nnc2-c2ccccc2)cc1C (configuration not stated)
0.14 | -1.8 | Cc1ccc(C)c(S(=O)(=O)N2CCCCC2CCNC(=O)C(=O)NCc2cccnc2)c1 (configuration not stated)
0.06 | 0.4 | Cc1ccc(C(=O)Nc2ccc(S(=O)(=O)N3CCCC3)cc2)s1
-0.09 | 1.4 | COc1cccc(C(=O)NNC(=O)Cc2ccc(Cl)cc2)c1
-1.1 | 0.3 | C1=C(CCNc2nnnn2-c2ccccc2)CCCC1
-0.33 | 0.3 | O=C(Nc1nnc(SCCN2CCOCC2)s1)C1CC(=O)N(c2ccccc2)C1 (configuration not stated)
2.7 | 0.0 | Cc1ccc(C(=O)NCC(=O)NCC(=O)OCc2ccc(F)cc2)cc1
-0.66 | -0.5 | Cc1ccc(NS(=O)(=O)c2cc3c4c(cccc4c2)C(=O)NC3=O)cc1
-0.49 | -0.5 | Cc1c(C)c2ccc(OC(C)C(=O)NC3CC(C)(C)NC(C)(C)C3)cc2oc1=O (configuration not stated)
0.18 | -1.2 | CC(=O)Nc1ccc(C)c(NC(=S)Nc2ccc(F)cc2)c1
0.08 | · | COc1ccc(NC(=O)CN2CCN(CC(=O)Nc3ccc(F)cc3F)CC2)cc1
1.4 | -0.2 | Cc1ccnc(NS(=O)(=O)c2ccc(NC(=O)c3c(-c4ccccc4Cl)noc3C)cc2)n1
-3 | 0.2 | CCCCNC(=O)CN(c1cccc(Br)c1)S(C)(=O)=O
0.18 | -1.8 | COc1cccc(OC)c1OCCCCN1CCC(Cc2ccccc2)CC1
-0.45 | -2.8 | NC(=O)c1cc(S(=O)(=O)NCc2ccccc2)cs1
-2.4 | 2.0 | CC(C)CNC(=O)C(=O)Nc1cc2c3c(c1)C(C)C(=O)N3CCC2 (configuration not stated)
-0.68 | 0.3 | O=C(O)/C=C/C(=O)c1c(-c2ccccc2)[nH]c2ccccc12
0.45 | -1.7 | Cc1ccc(-c2cc(C(=O)Nc3ccc4c(c3)OCCO4)c3ccccc3n2)cc1
1.1 | 0.5 | Cn1c(-c2ccc(CN3CCCCC3)o2)nc2ccccc21

One compound at a time (already shown).
CC(C)CNC(=O)C(=O)Nc1cc2c3c(c1)C(C)C(=O)N3CCC2 (configuration not stated) reads Kir21 inh: -2.4; STK33 kinase inh: 2.0
CC(=O)Nc1ccc(C)c(NC(=S)Nc2ccc(F)cc2)c1 reads Kir21 inh: 0.18; STK33 kinase inh: -1.2
COc1ccc(NC(=O)CN2CCN(CC(=O)Nc3ccc(F)cc3F)CC2)cc1 reads Kir21 inh: 0.08; STK33 kinase inh: ·

An excerpt, and most or all hits are left out here.
